Screening results: PubChem, several laboratories
Mtb growth: M. tuberculosis H37Rv growth inhibitors, H37Rv strain (AID 1626); inhibition, % at 10 µM, or IC50 in µM where a hit was titrated; M. tuberculosis H37Rv growth inhibition; higher % means a stronger effect; hit rate 0.95% among 220,000;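 active means confirmed in a dose series; inconclusive means inhibition above 80% but not taken into the dose series; inactive means below 80% or under 30% at every dose of the series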;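 further: bacteria incubated seven days before Alamar blue readout; 0% = bacteria only wells and 100% = bacteria with antibiotic wells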
RecA splice inh: inhibitors of M. tuberculosis RecA intein splicing | cell-free RecA intein splicing, fluorescence | inhibition, %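 (about 9 µM by stock and volumes)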 | hit rate 0.75% among 290,000; in the data active means inhibition above about 30%; inconclusive means no clear call, values can overlap the other calls;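 further: 0% = vehicle wells and 100% = reference inhibitor control wells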
Target sequence (P9WHJ3 whole entry, looked up, canonical isoform): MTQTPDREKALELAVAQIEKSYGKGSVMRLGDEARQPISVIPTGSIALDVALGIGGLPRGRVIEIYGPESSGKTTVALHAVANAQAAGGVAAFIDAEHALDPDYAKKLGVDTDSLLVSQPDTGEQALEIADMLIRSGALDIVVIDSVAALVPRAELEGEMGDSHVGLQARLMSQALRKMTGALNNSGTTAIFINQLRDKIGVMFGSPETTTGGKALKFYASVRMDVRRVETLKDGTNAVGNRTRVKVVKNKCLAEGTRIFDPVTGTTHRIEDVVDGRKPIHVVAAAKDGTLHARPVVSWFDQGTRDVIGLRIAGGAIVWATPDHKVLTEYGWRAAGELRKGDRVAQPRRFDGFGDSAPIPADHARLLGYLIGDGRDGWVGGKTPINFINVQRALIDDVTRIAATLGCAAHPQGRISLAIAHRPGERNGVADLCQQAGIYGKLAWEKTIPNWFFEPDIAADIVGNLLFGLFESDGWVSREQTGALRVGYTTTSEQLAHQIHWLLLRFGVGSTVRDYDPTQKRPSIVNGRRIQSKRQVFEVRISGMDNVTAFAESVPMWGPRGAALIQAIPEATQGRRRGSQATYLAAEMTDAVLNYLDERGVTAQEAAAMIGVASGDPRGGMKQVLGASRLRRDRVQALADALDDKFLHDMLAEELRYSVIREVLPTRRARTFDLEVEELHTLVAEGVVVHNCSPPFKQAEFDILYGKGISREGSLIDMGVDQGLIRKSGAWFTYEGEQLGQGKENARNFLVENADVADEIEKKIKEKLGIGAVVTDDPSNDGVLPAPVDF
YopH inh: blocks Yersinia enterocolitica YopH tyrosine phosphatase; fluorescence Ex485/Em525; inhibition, %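 (about 10 µM by stock and volumes)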; AID 898; hit rate 0.16% among 140,000;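 active means inhibition of 50% or more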;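 further: controls were vehicle for no effect and minimum signal wells for full effect; inactives centre near -20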
Mtb betalactam: beta-lactam sensitization of Mtb H37Rv. M. tuberculosis H37Rv growth with meropenem, percent inhibition; hits of this screen are not shown here. inhibition, % at 25 µM. AID 434955. hit rate 0.27% among 330,000;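 active means about 74% or more and at least 40 points above the plate without the antibiotic, then above 30% in a dose series; inconclusive means first-round hits that could not be retested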;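 further: growth measured after seven days incubation then overnight dye step; 0% = bacteria only wells and 100% = bacteria with antibiotic; twin plates without the antibiotic show which effects depend on it; some results filed as inactive read as strong as hits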
Arbovirus inh: blocks arbovirus infection; arbovirus infection cell-based antiviral screen; inhibition, % at 10 µM; hit rate 0.37% among 200,000;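 active means inhibition from about 30%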;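 further: bluetongue infection of BSR cells; cell survival read as ATP light after 72 h; 0% = infected wells without compound and 100% = uninfected wells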
* = called active by the depositor.

CCC(=O)N1CCc2cc(S(=O)(=O)CCC(=O)Nc3cccc(F)c3)ccc21 was read as Mtb growth 1.4%, RecA splice inh -7.8, YopH inh -53.4, Mtb betalactam 13.5 and Arbovirus inh 4.4.
Screening COC(=O)CCS(=O)(=O)c1nc(-c2ccccc2)cc(C(F)(F)F)n1 returned Mtb growth 2.2%, RecA splice inh 67.3*, YopH inh -2.0, Mtb betalactam 99.1 and Arbovirus inh -43.5.
Cc1sc2ncnc(NCC3CCCO3)c2c1C (stereo not given) was read as Mtb growth -2.6%, RecA splice inh 7.4, YopH inh -8.7, Mtb betalactam -4.7 and Arbovirus inh 7.1.
`CC12CC(c3ccccc3O1)N(C(=O)c1ccco1)C(=O)N2c1ccccc1` (stereo not given) gave Mtb growth -2.0%, RecA splice inh 0.7, YopH inh -16.3, Mtb betalactam -10.7 and Arbovirus inh -4.4.
Cc1cc(N2C(=O)[C@@H]3[C@H](C2=O)[C@@H]2C[C@H]3C(Br)C2Br)no1 (stereo not given in full) was read as Mtb growth 2.7%, RecA splice inh 1.8 and Mtb betalactam -2.9.
CCOC(=O)CSc1nnc(-c2cccnc2)n1Cc1ccccc1 was read as Mtb growth -3.0%, RecA splice inh 3.8, YopH inh -8.3, Mtb betalactam 9.5 and Arbovirus inh 3.3.
For NC(=O)C1(N2CCCCC2)CCN(C(=S)NC2CCCC2)CC1 the results were Mtb growth 1.2%, RecA splice inh -0.9, Mtb betalactam -2.4 and Arbovirus inh 5.2.
Screening O=C(c1ccc(-c2ccc(Cl)cc2Cl)o1)N1CCOCC1 returned Mtb growth -4.6%, RecA splice inh 2.6, Mtb betalactam 2.6 and Arbovirus inh -17.0.
CC(=O)N1CN2CN(C(C)=O)CC(C(=O)c3ccc(Br)cc3)(C2)C1 was read as Mtb growth -3.2%, RecA splice inh 0.9, YopH inh -38.7, Mtb betalactam -8.8 and Arbovirus inh 3.7.
CCOC(=O)N1CCC(NC(=O)c2cccc3c2C(=O)N(c2ccc(OC)cc2)C3)CC1 was read as Mtb growth 2.5%, RecA splice inh -0.4, YopH inh -29.6, Mtb betalactam 0.5 and Arbovirus inh -0.2.
COc1cccc(CNc2nc(C(F)(F)F)nc3ccccc23)c1 was read as RecA splice inh 5.3 and Mtb betalactam 2.9.
`CCCN1CNC(=S)N(c2cccc(C)c2)C1` gave Mtb growth -13.5%, RecA splice inh -0.8 and Mtb betalactam -8.8.
For COC(=O)Cn1c(=O)c2c(nc(Br)n2CC(=O)OC)n(C)c1=O the results were Mtb growth -3.4%, RecA splice inh -0.8, YopH inh 0.6, Mtb betalactam inconclusive and Arbovirus inh 1.9.
Screening COc1ccc(C2=NN(C(=O)CCC(=O)O)C(c3ccc(Br)cc3)C2)cc1 (stereo not given) returned RecA splice inh -1.6 and Mtb betalactam 2.5.
For Cc1ccc(C(=O)NNC(=O)CSc2nnc(C(C)C)n2C)cc1 the results were RecA splice inh -0.7 and Mtb betalactam -3.3.
`CNC(=S)N1N=C(c2ccc(C)cc2)CC1c1ccc(Cl)cc1` (stereo not given) gave Mtb growth -4.8%, RecA splice inh 4.4, YopH inh -2.1, Mtb betalactam 13.6 and Arbovirus inh 3.6.
O=C(/C=C/c1ccc2c(c1)OCO2)NCCSCc1cccc(Cl)c1 was read as RecA splice inh 11.9, YopH inh -11.3, Mtb betalactam -3.1 and Arbovirus inh -38.9.
N#C/C(=C\c1ccc(N2CCCCC2)o1)C(=O)Nc1cccc(Br)c1 was read as Mtb growth 4.0%, RecA splice inh 4.2, YopH inh -22.3, Mtb betalactam 28.2 and Arbovirus inh 2.3.
COC(=O)c1ccc(Cl)c(NC(=O)CN2CCC(C)CC2)c1 was read as Mtb growth -2.6%, RecA splice inh 0.4, YopH inh -26.9, Mtb betalactam -2.1 and Arbovirus inh -0.6.
For COc1ccc(/C=N/NC(=O)CNC(=O)c2ccc(S(=O)(=O)N3CCOCC3)cc2)c(OC)c1 the results were Mtb growth -4.1%, RecA splice inh 0.0, YopH inh -17.7, Mtb betalactam 8.0 and Arbovirus inh 4.0.
Screening Cc1ccc(Oc2ccc(N)cc2)cc1 returned Mtb growth 56.0%, RecA splice inh 0.2, YopH inh -48.5, Mtb betalactam 94.5 and Arbovirus inh -15.2.
For COc1ccc(NC(=O)CN(C)C(=O)CNC(=O)c2ccc3c(c2)OCO3)cc1 the results were RecA splice inh -1.3 and Mtb betalactam 1.9.
`O=C(NN1CC(=O)N(c2cc(Cl)cc(Cl)c2)CC1=O)c1sccc1Cl` gave Mtb growth 8.2%, RecA splice inh 1.1 and Mtb betalactam -10.0.
O=C(CS(=O)CC(=O)Nc1cnc2ccccc2c1)Nc1ccc(Cl)cc1 (stereo not given) was read as RecA splice inh 1.5 and Mtb betalactam 39.3.
Screening COc1ccc(NC(=O)c2ccccn2)cc1S(=O)(=O)N1CCOCC1 returned Mtb growth -2.4%, RecA splice inh 1.4, Mtb betalactam -8.6 and Arbovirus inh 5.5.
O=C1C2C3C=CC(C3)C2C(=O)N1Nc1ccccc1 (stereo not given) was read as Mtb growth -1.9%, RecA splice inh 1.0 and Mtb betalactam 3.0.
For O=C(N/C(=C/c1ccc(Br)cc1)C(=O)N1CCOCC1)c1ccco1 the results were RecA splice inh 0.8 and Mtb betalactam -6.6.
Screening CCOC(=O)c1cc2n(n1)C(C(F)(F)F)CC(C)N2 (stereo not given) returned Mtb growth -17.6%, RecA splice inh 0.7, YopH inh -3.2, Mtb betalactam -11.4 and Arbovirus inh -0.7.
For CCC(=O)NC(=S)Nc1ccc(S(=O)(=O)NC(C)=O)cc1 the results were Mtb growth -2.7%, YopH inh -143.1, Mtb betalactam -6.7 and Arbovirus inh 0.1.
`O=C1NCCCCC1NS(=O)(=O)c1ccc(F)c(F)c1` (stereo not given) gave Mtb growth -5.0%, RecA splice inh 0.8 and Mtb betalactam -5.0.

5 successive compounds already listed, for reference:
`CNC(=S)N1N=C(c2ccc(C)cc2)CC1c1ccc(Cl)cc1` (stereo not given) gave Mtb growth -4.8%, RecA splice inh 4.4, YopH inh -2.1, Mtb betalactam 13.6 and Arbovirus inh 3.6.
O=C(/C=C/c1ccc2c(c1)OCO2)NCCSCc1cccc(Cl)c1 was read as RecA splice inh 11.9, YopH inh -11.3, Mtb betalactam -3.1 and Arbovirus inh -38.9.
N#C/C(=C\c1ccc(N2CCCCC2)o1)C(=O)Nc1cccc(Br)c1 was read as Mtb growth 4.0%, RecA splice inh 4.2, YopH inh -22.3, Mtb betalactam 28.2 and Arbovirus inh 2.3.
COC(=O)c1ccc(Cl)c(NC(=O)CN2CCC(C)CC2)c1 was read as Mtb growth -2.6%, RecA splice inh 0.4, YopH inh -26.9, Mtb betalactam -2.1 and Arbovirus inh -0.6.
For COc1ccc(/C=N/NC(=O)CNC(=O)c2ccc(S(=O)(=O)N3CCOCC3)cc2)c(OC)c1 the results were Mtb growth -4.1%, RecA splice inh 0.0, YopH inh -17.7, Mtb betalactam 8.0 and Arbovirus inh 4.0.

Next section.
For CC(C)NC(=O)CSc1nc(Cc2ccccc2)nc2ccccc12 the results were RecA splice inh 10.5 and Mtb betalactam 28.3.
Cc1c(C(=O)NCc2ccccn2)oc2ccc(S(=O)(=O)N3CCC4(CC3)OCCO4)cc12 was read as Mtb growth -21.4%, Mtb betalactam 3.0 and Arbovirus inh 10.5.
For COc1ccc(F)cc1CN1CCN(CC(=O)N2CCc3ccccc32)CC1 the results were RecA splice inh -2.9 and Mtb betalactam 0.7.
COc1ccccc1NC(=S)NNC(=O)c1ccc(Cl)cc1Cl was read as Mtb growth -5.2%, RecA splice inh 2.3, YopH inh -49.9, Mtb betalactam 9.0 and Arbovirus inh 12.0.
Screening COc1ccc(S(=O)(=O)N2CCOCC2)cc1NS(=O)(=O)/C=C/c1ccccc1 returned Mtb growth -3.8%, RecA splice inh 4.8, Mtb betalactam 2.4 and Arbovirus inh -0.8.
Screening Cc1cccc(C(=O)NC(=S)NCc2ccccc2)c1 returned RecA splice inh 20.4 and Mtb betalactam 1.8.
COc1ccc(NC(=O)CNC(=O)Cn2cnc3sc(C)c(C)c3c2=O)cc1OC was read as RecA splice inh 4.2 and Mtb betalactam 0.6.
CCCC(=O)NC(=S)Nc1ccc(Cl)cn1 was read as Mtb growth -5.2%, RecA splice inh 1.9, YopH inh -29.6, Mtb betalactam -6.8 and Arbovirus inh 4.1.
Screening Cn1c(C(=O)OCC(=O)NCC2CCCO2)cc2sccc21 (stereo not given) returned Mtb growth -4.9%, RecA splice inh -0.4, YopH inh 4.0, Mtb betalactam 3.3 and Arbovirus inh -7.5.
CCOc1ccc(NC(=O)CSc2nncc(=O)[nH]2)cc1 was read as RecA splice inh 3.7 and Mtb betalactam 98.9.
Cc1ccc(S(=O)(=O)NC(=S)c2ccccc2)cc1 was read as RecA splice inh -0.2 and Mtb betalactam -13.3.
O=C(CSc1ccc2ccccc2c1)Nn1cnnc1 was read as Mtb growth 4.1%, RecA splice inh 1.8, YopH inh -31.0, Mtb betalactam 19.8 and Arbovirus inh 5.4.
`COC(=O)c1cccc(NC(=O)CSc2nnc(C)o2)c1` gave RecA splice inh -0.6 and Mtb betalactam 2.7.
c1ccc(-c2noc(CSc3nc4ccccc4o3)n2)cc1 was read as RecA splice inh 4.8, YopH inh -30.0, Mtb betalactam 75.2 and Arbovirus inh 11.2.
`Cc1ccc(C)c(NC(=O)CN(C)C(=O)c2cccc(N3C(=O)CCC3=O)c2)c1` gave RecA splice inh -2.4 and Mtb betalactam -12.1.
For Cc1ccccc1CC(=O)Nc1ccc2c(c1)CCC2 the results were RecA splice inh 1.4 and Mtb betalactam -0.6.
`Cc1cccc(S(=O)(=O)Nc2nc3ccccc3nc2OC(C)C)c1` gave RecA splice inh -1.5 and Mtb betalactam 1.6.
`CCOC(=O)c1ccc(N2C(=O)CC(SCC(=O)Nc3ccc(S(N)(=O)=O)cc3)C2=O)cc1` (stereo not given) gave Mtb growth -9.2%, RecA splice inh 1.1, Mtb betalactam 0.1 and Arbovirus inh 14.6.
For Cc1ccc(S(=O)(=O)NC(C)(C)CSc2nncn2N)cc1 the results were Mtb growth -2.3%, RecA splice inh -0.5, YopH inh 7.1, Mtb betalactam -9.2 and Arbovirus inh 4.2.
For Cc1cc(OCC(=O)NCCCn2ccnc2)c2c(C)c(C)c(=O)oc2c1 the results were RecA splice inh -4.7 and Mtb betalactam -3.8.
CC(C)C(NC(=O)C12CC3CC(CC(C3)C1)C2)C(=O)N/N=C/C1=C(N2CCOCC2)C(=C\c2cccc([N+](=O)[O-])c2)/CC1 (stereo not given) was read as Mtb growth 3.5%, RecA splice inh 0.8, YopH inh -13.8, Mtb betalactam 0.5 and Arbovirus inh -7.3.
CC(=O)c1cccc(NCC(=O)c2ccc(C)c([N+](=O)[O-])c2)c1 was read as RecA splice inh 1.6 and Mtb betalactam 3.0.
For COc1cccc(C(=O)CSc2nc3ccccc3n2CC(=O)N2CCOCC2)c1 the results were Mtb growth 7.0%, RecA splice inh 0.3, YopH inh -36.5, Mtb betalactam -2.1 and Arbovirus inh 2.8.
`O=S1(=O)CCC(NS(=O)(=O)c2ccc3ccccc3c2)C1` (stereo not given) gave RecA splice inh 0.6 and Mtb betalactam -0.9.
Screening Cc1cc(C)cc(OCc2nnc(SCC(=O)N3CCN(c4ccccc4)CC3)o2)c1 returned Mtb growth -4.8%, RecA splice inh 2.8, YopH inh 18.8, Mtb betalactam 30.1 and Arbovirus inh -7.5.
For O=C1C=C(NC2CCCCC2)CCC1 the results were RecA splice inh -1.5 and Mtb betalactam -7.7.
O=C(N1CCOCC1)N1c2ccccc2CC(N2CCOCC2)c2ccccc21 (stereo not given) was read as Mtb growth 1.3%, YopH inh -24.7, Mtb betalactam -5.7 and Arbovirus inh 12.9.
For Cn1c2ccccc2c2nnc(SCC(=O)Nc3cccc(O)c3)nc21 the results were RecA splice inh -0.8 and Mtb betalactam -5.6.
For O=C1N=C(N2CCOCC2)S/C1=C\c1cccnc1 the results were Mtb growth 2.4%, RecA splice inh -0.9, Mtb betalactam 2.9 and Arbovirus inh 2.3.
CCOC(=O)C[C@H]1c2cc(F)ccc2S(=O)(=O)N1C(C)(C)C was read as Mtb growth -5.4%, RecA splice inh -4.2 and Mtb betalactam 4.7.
`COc1cc(C(C(=O)NCc2ccccc2)N(Cc2ccco2)C(=O)c2cnccn2)cc(OC)c1OC` (stereo not given) gave Mtb growth 7.6%, RecA splice inh -0.9, Mtb betalactam 2.7 and Arbovirus inh 3.2.
CC(C)c1ccccc1N=C1SCCCN1C(=O)c1cccc(N2C(=O)CCC2=O)c1 was read as RecA splice inh -3.8 and Mtb betalactam -9.2.
Cc1ccnc(NC(=O)Cc2ccc(-c3ccccc3)cc2)c1 was read as RecA splice inh 5.3 and Mtb betalactam 63.7.
`Cc1cc(NCCN2CCOCC2)n2ncc(-c3ccccc3)c2n1` gave Mtb growth 8.3%, RecA splice inh 3.5, YopH inh -32.9, Mtb betalactam 38.9 and Arbovirus inh -0.1.
For Cc1cc(C)n(CC(O)Cn2c3ccc(Br)cc3c3cc(Br)ccc32)c(=O)n1 (stereo not given) the results were Mtb growth 12.5%, RecA splice inh 21.1, YopH inh -3.3, Mtb betalactam 5.2 and Arbovirus inh -35.4.

Some of the compounds tested; count on the stated rates, not on these rows.
